Source: PubChem (National Center for Advancing Translational Sciences (NCATS))
A488 autofl – compound fluoresces in the A488 spectral region; max dye equivalency, M; compound autofluorescence, A488 spectral region, dye equivalency; stronger effect = higher value; actives 0.1% (n = 59,000); active = above 10 nM dye equivalent; inconclusive = 1 to 10 nM; inactive = 1 nM or less; about half of its hits are not listed in these tables;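 further: highest value over a series up to 38 µM; compound alone in buffer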
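Readout is A488 dye-equivalent concentration, calibrated by a per-plate six-point Alexa 488 series. Compounds in 100 mM Tris buffer pH 8.0 were incubated 15 min at room temperature. Plates were imaged using 480 nm excitation/540 nm emission filters.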
AID923 – qHTS Assay for Allosteric/Competitive Inhibitors of Caspase-1: Spectroscopic Profiling in AFC Spectral Region; compound fluorescence, AFC spectral region (405/520 nm); almost no hit is shown here; Potency, µM (titrated, usually from 57.5 µM), inactives show at the top dose fluorescence increase, hits mostly activators; actives 1.1% (n = 75,000); AID 923, 2007; active means well fitted activation curve with a large enough effect; inconclusive means small, poorly fitted or top-dose-only effect;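 further: potency means the concentration at half of the fitted maximal effect; 0% is about no effect; scaled to a free AFC standard on each plate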
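Baseline compound fluorescence (AFC region, 405 nm ex/520 nm em) taken from the intercept of kinetic reads with 50 nM caspase-1 and 5 uM Ac-WEHD-AFC; normalized to an on-plate AFC standard curve; compounds titrated up to 57 uM.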
Resorufin autofl – resorufin region autofluorescence | Compound fluorescence, resorufin region 547/598 nm, buffer; stronger effect = higher value | max dye-equivalent concentration, M | actives 0.04% (n = 59,000); active = above 10 nM dye equivalent; inconclusive = 1 to 10 nM; inactive = 1 nM or less; a few of its hits are not listed in these tables; further: highest value over a series up to 38 µM
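Dye-equivalent concentration values derive from comparing each well's 547/598 nm fluorescence against resorufin standards included on every plate. Incubation was 15 min at room temperature in 100 mM Tris, pH 8.0.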
A647 fluor – compound autofluorescence in A647 spectral region | Compound fluorescence, A647 channel (570/671 nm), Tris buffer | max dye-equivalent concentration, M | 59,000 tested, under 10 active; active means above 1 µM dye equivalent; inconclusive means 0.1 to 1 µM; inactive means 0.1 µM or less;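 further: values scaled relative to a standard on each plate; highest value over a series up to 38 µM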
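Compounds pinned into 100 mM Tris pH 8.0, 15 min at room temperature, then read with 570 nm excitation/671 nm emission filters. Fluorescence normalized to an on-plate six-point Alexa 647 standard curve, giving dye-equivalent concentration per compound concentration.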
TSHR agonist – TSH receptor (human) agonism; P16473; HEK293-CNG-TSHR cells (CNG channel as cAMP sensor), membrane potential dye, cAMP; Potency, µM (series often up to 57.1 µM), without a hit: top-dose activation, actives largely listed as activators; actives 0.48% (n = 73,000); AID 926; active = well fitted activation curve of enough size with the parental cells flat; inconclusive = any curve in the parental cells; inactive = parental cells flat and receptor cells flat or falling; further: potency means the concentration at half of the fitted maximal effect; % of control where 0% means no effect; weak receptor curves with flat parental cells got no call and are not listed
Target sequence (P16473 whole entry, looked up): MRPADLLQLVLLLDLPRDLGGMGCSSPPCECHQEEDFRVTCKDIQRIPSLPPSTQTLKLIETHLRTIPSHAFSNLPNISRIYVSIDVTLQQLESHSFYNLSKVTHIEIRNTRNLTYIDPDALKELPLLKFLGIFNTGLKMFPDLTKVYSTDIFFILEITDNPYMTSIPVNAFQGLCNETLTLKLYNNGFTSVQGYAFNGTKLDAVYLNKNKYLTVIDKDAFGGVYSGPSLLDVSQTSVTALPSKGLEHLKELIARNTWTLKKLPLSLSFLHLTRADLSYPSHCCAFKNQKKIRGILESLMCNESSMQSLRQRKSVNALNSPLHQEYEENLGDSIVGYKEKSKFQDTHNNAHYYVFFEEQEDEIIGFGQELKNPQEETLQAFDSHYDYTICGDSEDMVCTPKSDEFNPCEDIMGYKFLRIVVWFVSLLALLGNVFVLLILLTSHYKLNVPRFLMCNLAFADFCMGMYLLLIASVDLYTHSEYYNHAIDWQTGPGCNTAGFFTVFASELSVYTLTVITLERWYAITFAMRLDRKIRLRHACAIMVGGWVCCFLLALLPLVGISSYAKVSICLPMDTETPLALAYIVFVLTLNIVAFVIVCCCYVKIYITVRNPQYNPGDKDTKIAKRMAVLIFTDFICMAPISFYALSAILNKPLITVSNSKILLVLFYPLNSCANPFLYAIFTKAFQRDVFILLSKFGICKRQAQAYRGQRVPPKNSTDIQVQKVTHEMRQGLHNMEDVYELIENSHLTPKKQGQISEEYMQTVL
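HEK 293 cells stably expressing TSHR and a cAMP-gated CNG channel; parental CNG-only cells as counterscreen. Cells preloaded 60 min with membrane potential dye plus 100 uM RO 20-1724, then compound 30 min; fluorescence read at 590 nm.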
Active calls of the source: *; i = inactive; ? = inconclusive; . = no result given; [ ] = dose if it differs, or a comment. This is a subset, so the mix of outcomes need not match the whole.

Under each structure: A488 autofl	AID923	Resorufin autofl	A647 fluor	TSHR agonist
CCOc1cc(C2C(C(=O)N3CCCCC3)=C(C)NC3=C2C(=O)CCC3)cc(Br)c1O (centres undefined)
    i	-0.1%	i	1.1e-08	4%
CCOc1ccccc1NC(=O)CN(C)S(=O)(=O)c1cccc2nsnc12
    i	0.8%	i	1e-09	-6%
N#CCCN(C(=O)c1ccco1)c1ccccc1
    i	.	i	6.3e-08	.
COc1ccc(C2CC(c3ccc(C)cc3)Nc3nc(N)nn32)cc1 (centres undefined)
    i	.	i	1.5e-09	.
Cc1cn(-c2ccc(Br)cc2)[nH]c1=O
    i	-2.0%	i	7.9e-09	1%
Fc1ccc(C(c2nnnn2Cc2cccs2)N2CCN(C3CCCCC3)CC2)cc1 (centres undefined)
    i	1.4%	i	4.9e-09	11%
CC1CCN(CC[S-])CC1.O.O.[Cl][Pt]
    i	-2.1%[11.5 µM]	i	5e-08	-7%[11.4 µM]
Cc1ccsc1C(C(=O)NC1CCCCC1)N(C(=O)Cc1cccs1)C1CC1 (centres undefined)
    i	-0.3%	i	1e-09	?
COc1ccc2c(Cl)cc(NC(=S)Nc3ccccc3)nc2c1
    i	-1.6%[11.5 µM]	i	9.5e-09	-1%[11.4 µM]
COC(=O)c1ccc2c(=O)n(Cc3ccco3)c(SCC(=O)Nc3ccccc3Cl)nc2c1
    i	-1.3%	i	6.4e-09	24%
CCc1ccc(NC(=O)c2cc(C(C)C)on2)cc1
    i	-1.3%	i	9.9e-09	7%
O=C(NCc1ccccc1)c1ccc(CN2CCOCC2)cc1
    .	-0.3%	.	.	-9%
CSCCC(NS(=O)(=O)c1ccc2c(c1)OCCO2)C(=O)NCCc1ccccn1 (centres undefined)
    i	0.0%	i	3.9e-08	?
Cc1ccc(-n2c(=O)c3c4c(sc3n3c(C)nnc23)COC(C(C)C)C4)cc1 (centres undefined)
    i	.	i	1e-09	.
CCN(C(=O)CN1CCN(c2ccc(O)cc2)CC1)c1c(N)n(Cc2ccccc2)c(=O)[nH]c1=O
    i	2.2%	i	3.6e-09	8%
O=C(/C=N/O)NCCCn1ccnc1
    i	-1.4%	i	1e-09	1%
COc1ccc(OC)c(NC(=O)CN(c2ccc(OC)c(Cl)c2)S(C)(=O)=O)c1
    i	-2.9%	i	1e-09	21%
COc1ccc(N(CC(=O)Nc2ccc3c(c2)OCCO3)S(=O)(=O)c2c(C)noc2C)cc1
    i	0.3%	i	9.1e-09	.
CCCc1cc(=O)n2[nH]c(Cc3ccccc3)nc2n1
    i	0.1%	i	1e-09	13%
CCOc1ccccc1NC(=O)c1ccc(F)c(S(=O)(=O)N2CCC3(CC2)OCCO3)c1
    i	-2.2%	i	1e-09	19%
COC(=O)Cc1cc(=O)n(-c2nc3ccccc3[nH]2)[nH]1
    i	9.0%	i	1e-09	-6%
COC(=O)COc1ccc(-c2nn(C)c(=O)c3ccccc23)cc1
    i	-0.1%	i	1.8e-08	-1%
CC(=O)C1C(c2ccccc2OC(F)F)NC(=O)NC1(O)C(F)(F)F (centres undefined)
    i	0.1%	i	1e-09	3%
COc1ccccc1N1CCN(CC(=O)c2c(C)n(C)c3ccccc23)CC1
    i	2.0%	i	1.4e-08	-7%
Cc1oc(-c2ccc(Cl)cc2)nc1CN1CCC(C(=O)NCCCN2CCOCC2)CC1
    i	-0.2%	i	1.7e-08	3%
Cc1ccc(-n2c(C)cc3c2CCCC3=O)cc1
    i	1.0%	i	5.6e-09	?
Cc1cc(C(F)(F)F)nc(SCc2ccc(C(=O)O)o2)n1
    i	3.0%	i	1e-09	27%
CC(C)Cc1nnc(NC(=O)CCC(=O)N2CCOCC2)s1
    i	0.1%	i	2.9e-09	?
O=C(c1ccc2snnc2c1)N1CCCC1
    .	2.4%	.	.	6%
CC(C)Cn1c(CNC(=O)c2ccccc2)nc2ccccc21
    i	0.2%	i	3.3e-09	-1%[11.4 µM]
CCSc1nnc([C@H](C)NC(=O)OC(C)(C)C)o1
    i	-0.5%	i	4.5e-09	4%
Cc1cnc(NC(=O)COc2ccccc2Cl)s1
    i	2.7%	i	3.8e-09	-12%
c1ccc(Cn2c(SCc3nc4ccccc4s3)nnc2-c2ccco2)cc1
    i	1.4%	i	1e-09	?
O=C(O)C1CC=CCC1C(=O)Nc1ccc(F)c(F)c1 (centres undefined)
    i	-0.4%	i	5.7e-09	0%
CSc1nc(SC)c2c3c(oc2n1)COC(C)(C)C3
    i	-0.7%	i	3.9e-08	.
O=C(NCC1CCCO1)c1cc2c(s1)CS(=O)(=O)C2 (centres undefined)
    i	0.6%	i	1e-09	-4%[11.4 µM]
O=C(Oc1ccccc1)N1CCC[C@@]2(CCN(c3ncccn3)C2)C1
    i	0.5%	i	2.7e-09	7%
CCc1ccccc1NC(=O)CSc1nc2n[nH]c(C)c2c(=N)n1-c1ccc(OC)cc1
    i	0.9%	i	1e-09	27%
CC1CCCCC1NC(=O)c1cncc(Br)c1 (centres undefined)
    i	-1.2%	i	3e-09	15%
Cn1c(Cn2nnc3ccccc32)nnc1SCC(=O)N1c2ccccc2Sc2ccccc21
    i	-0.7%	i	4.9e-08	21%
COc1cc2nc(NCCN3CCOCC3)n3nc(-c4ccccc4)nc3c2cc1OC
    i	-1.2%	i	1.5e-08	8%[11.4 µM]
CCOC(=O)c1nnn(-c2nonc2N)c1COc1cc(C)c(Cl)c(C)c1
    i	0.2%	i	4.2e-08	?
CC(C)C(c1nnnn1C1CCCCC1)N1CCc2ccccc2C1 (centres undefined)
    i	-1.4%	i	1.9e-08	?
COc1cccc(C(c2sc3ncnn3c2O)N2CCN(C(=O)c3ccco3)CC2)c1 (centres undefined)
    .	-3.0%	.	.	-7%
COc1ccc(C)cc1S(=O)(=O)Nc1ccc(F)cc1
    i	1.3%	i	2.3e-09	-2%
Cc1ccc(N=Cc2ccc[nH]2)c(O)c1
    .	1.5%	.	.	-10%
COc1ccc(N2CCCn3c2nc2c3c(=O)n(Cc3ccccc3F)c(=O)n2C)cc1
    i	0.8%	i	2.2e-08	25%
COc1ccc(-c2noc(CN3CCC(Cc4ccccc4)CC3)n2)cc1
    i	1.5%	i	3.9e-09	.
CCOC(=O)N1CCN(c2c(Nc3ccc4c(c3)OCCO4)c(=O)c2=O)CC1
    .	-1.5%	.	.	1%
CCC1Oc2ccc(C)cc2N(CC(=O)N(Cc2ccc3c(c2)OCO3)CC2CCCO2)C1=O (centres undefined)
    i	-0.2%	i	6.1e-09	?
CC(C)C(c1nnnn1C1CCCC1)N1CCCc2ccccc21 (centres undefined)
    i	0.0%	i	1e-09	.
CC(C)(C)c1cc(Br)ccc1OCC(=O)Nc1ncn[nH]1
    .	-0.7%	.	.	0%
COc1ccc(Nc2ncc3c(n2)CC(c2ccc(OC)cc2)CC3=O)cc1 (centres undefined)
    i	?	i	1.7e-08	13%
Cn1c(NCc2ccco2)nc2ccccc21
    i	0.4%	i	2.8e-08	-17%
CC(NC(=O)Nc1ccccc1)C(c1cccs1)N1CCN(C)CC1 (centres undefined)
    .	2.2%	.	.	9%
COC(=O)c1cccc(-n2nnnc2SCC(=O)Nc2nc3c(s2)CCCC3)c1
    i	0.9%	i	3e-08	?
Cc1cc(C)n(C(=O)c2cc3ccccc3c(=O)o2)n1
    i	0.0%	i	2.5e-08	-3%
CCCOc1ccc(C(=O)Nn2c(C)nc3ccccc3c2=O)cc1
    i	2.9%	i	1e-09	10%
COc1ccc(N2C(=O)C3CCCN3C2c2cccc(Br)c2)cc1 (centres undefined)
    .	0.2%	.	.	9%
COc1ccc2[nH]c(C)c(CCN3C(=O)OC(C)(C)C3(C)O)c2c1 (centres undefined)
    .	-0.8%	.	.	0%

Next records follow:
Under each structure: A488 autofl	AID923	Resorufin autofl	A647 fluor	TSHR agonist
CCOc1ccc(C(=O)N2CCCCCC2)cc1
    i	-1.9%	i	3.1e-08	10%
c1c2c(cc3sc(N4CCOCC4)nc13)OCO2
    i	1.1%	i	4e-08	.
C#CCn1cc[n+](CC(=O)N(C)C)c1
    i	0.3%	i	1e-09	19%
CC(C)NC(=O)Cn1c(SCC(=O)N2CCc3ccccc3C2)nc2ccccc21
    i	0.0%	i	1e-09	4%
COc1ccc(-c2nc(-c3cccs3)c(-c3cccs3)[nH]2)cc1O
    i	-2.8%	i	5.7e-09	-20%
O=C(O)c1cccc(CN2C(=O)SC(Nc3ccccc3)C2=O)c1 (centres undefined)
    i	3.0%	i	4.7e-09	13%
Cc1cc(NCc2ccc3c(c2)OCO3)n2nc(C)nc2n1
    .	-2.9%	.	.	?
CCOC(=O)C1=C(N2CCCCC2)c2cc3c(n2C1=O)CCCC3
    i	-1.2%	i	1.6e-08	21%
CCOc1ccc2[nH]c(=O)c(CN(Cc3ccc(C)cc3)C(=O)N3CCCC3)cc2c1
    i	1.1%	i	3.7e-08	?
COc1cc(C(=O)NCc2nnc(SCC(=O)N3CCCCC3)o2)cc(OC)c1OC
    i	-0.6%	i	2.8e-09	8%[11.4 µM]
O=C(O)c1c(Cl)cccc1Cl
    .	1.5%	.	.	-2%
CC1=C(C#N)C(c2cn(-c3ccccc3)nc2-c2cccs2)C(C#N)=C(C)N1
    i	4.5%	i	1.5e-09	.
CCOc1ccc(CCNC(=O)c2oc3c(c2C)-c2[nH]ncc2CC3)cc1OCC
    .	8.2%	.	.	22%
CC1(C)Cc2c(sc(NC(=O)c3ccco3)c2C#N)C(C)(C)N1
    i	0.8%	i	1e-09	.
O=c1c2ccccc2ncn1C1CCCCC1
    i	-1.1%	i	4.3e-09	-6%
Clc1ccc(C(c2ccc(Cl)cc2)n2cc[n+](C[C@@H](OCc3ccc(Cl)cc3Cl)c3ccc(Cl)cc3Cl)c2)cc1
    i	1.3%	i	1e-09	-2%
CC(C)N1C(=O)CN(C2CCCCCC2)C(=O)C1c1ccccc1F (centres undefined)
    i	-0.6%	i	1e-09	.
CC(NC(=O)Nc1ccccc1C(F)(F)F)C1CCCO1 (centres undefined)
    i	-0.7%	i	3e-08	-3%
CC1CCN(S(=O)(=O)c2ccc3c(c2)CCN3C(=O)CCC(=O)O)CC1
    i	-0.1%	i	2.1e-08	0%
CN(c1ccc(C(=O)N2CCCCC2)cc1)S(C)(=O)=O
    i	-0.1%	i	2.3e-08	0%
CCN(CC)C(=O)CSc1nnc(-c2ccccc2)n1-c1ccccc1
    i	0.2%	i	3.3e-09	0%
O=C(c1cnccn1)N1CCC2(CCCN(c3ncccn3)C2)CC1
    i	0.8%	i	1e-09	10%

Single records, from the list above. Order of values: A488 autofl | AID923 | Resorufin autofl | A647 fluor | TSHR agonist
CC1CCN(S(=O)(=O)c2ccc3c(c2)CCN3C(=O)CCC(=O)O)CC1 in the list: i | -0.1% | i | 2.1e-08 | 0%
O=C(O)c1c(Cl)cccc1Cl in the list: . | 1.5% | . | . | -2%
CC(C)NC(=O)Cn1c(SCC(=O)N2CCc3ccccc3C2)nc2ccccc21 in the list: i | 0.0% | i | 1e-09 | 4%
Clc1ccc(C(c2ccc(Cl)cc2)n2cc[n+](C[C@@H](OCc3ccc(Cl)cc3Cl)c3ccc(Cl)cc3Cl)c2)cc1 in the list: i | 1.3% | i | 1e-09 | -2%
c1c2c(cc3sc(N4CCOCC4)nc13)OCO2 in the list: i | 1.1% | i | 4e-08 | .

Single values from the results shown:
A647 fluor, `COC(=O)Cc1cc(=O)n(-c2nc3ccccc3[nH]2)[nH]1` stands at 1e-09
AID923, `CC1CCN(CC[S-])CC1.O.O.[Cl][Pt]` stands at -2.1%[11.5 µM]
TSHR agonist, `CCCc1cc(=O)n2[nH]c(Cc3ccccc3)nc2n1` stands at 13%
